# Assay outcomes from PubChem.
# Rango complex inh: qHTS Assay for Inhibitors of Rango (Ran-regulated importin-beta cargo) - Importin beta complex formation; Importin subunit beta-1 (Homo sapiens), Q14974; Rango CFP/YFP FRET sensor + importin beta, 45 min; Potency, µM (doses to about 92.2 µM), for inactives: at the highest dose inhibition of complex formation; 340,000 tested, 0.031% active; AID 540263, 2011; active = rising FRET ratio curve, often small or poorly fitted; inconclusive = mostly compound fluorescence or quenching in the first reads; inactive = flat curves in all reads;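 also: potency is read from the fitted curve at half-maximal effect; 0% = DMSO wells and 100% = buffer wells lacking importin beta; nearly all actives have a fitted effect of over 15% in size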
#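 Inhibition scored from the CFP 486 nm/YFP 530 nm FRET ratio 45 min after adding 0.125 microM importin beta to 50 nM Rango biosensor preincubated 5 min with compound (room temperature, PBS with DTT, Tween-20, BSA). No-importin wells as positive control.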
# Rango dissoc inh: qHTS Assay for Inhibitors of RanGTP induced Rango (Ran-regulated importin-beta cargo) - Importin beta complex dissociation; Snurportin-1 (Homo sapiens) + GTP-binding nuclear protein Ran (Homo sapiens) + Importin …; Biochemical FRET Rango-importin beta, RanGTP-induced dissociation; Potency, µM (doses to about 46.1 µM), for inactives: at the highest dose activity change, negative = inhibition; 340,000 tested, 0.071% active; active means falling FRET ratio curve, often poorly fitted, with flat reads before Ran was added; inconclusive means other falling curves, or compound fluorescence or quenching; inactive means flat or rising ratio curve;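 also: potency is read from the fitted curve at half-maximal effect; % of control where 0% means no effect; nearly all actives have a fitted effect of over 45% in size; -100% = wells without RanGTP and RCC1; the record marks most hits as doubtful in a second field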
#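 Compounds sat 5 min at room temperature with 0.1 uM Rango biosensor plus 0.25 uM importin beta, then FRET pre-read. RanGTP-RCC1 (0.6 uM Ran, 2mM GTP, 0.2 uM RCC1) added for 45 min, and the CFP/YFP post-read measured blocked complex dissociation.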
# GLA inh pH 4.5: qHTS Assay for Inhibitors of Human alpha-Galactosidase at pH 4.5; AID 1467, 2008; activity change, negative = inhibition, % at 105 µM; Alpha-galactosidase A (Homo sapiens), P06280; 230,000 tested, under 10 active; purified enzyme, 4-MU-alpha-Gal fluorescence, pH 4.5; inconclusive = small, poorly fitted or top-dose-only inhibition, or a rising curve; inactive = flat fitted curve, though single readings scatter; no compound was filed as active;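 also: 0% = full activity with enzyme and -100% = basal without enzyme; dose as in the result columns while the protocol names 77 µM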
# Target sequence (P06280 whole entry, looked up): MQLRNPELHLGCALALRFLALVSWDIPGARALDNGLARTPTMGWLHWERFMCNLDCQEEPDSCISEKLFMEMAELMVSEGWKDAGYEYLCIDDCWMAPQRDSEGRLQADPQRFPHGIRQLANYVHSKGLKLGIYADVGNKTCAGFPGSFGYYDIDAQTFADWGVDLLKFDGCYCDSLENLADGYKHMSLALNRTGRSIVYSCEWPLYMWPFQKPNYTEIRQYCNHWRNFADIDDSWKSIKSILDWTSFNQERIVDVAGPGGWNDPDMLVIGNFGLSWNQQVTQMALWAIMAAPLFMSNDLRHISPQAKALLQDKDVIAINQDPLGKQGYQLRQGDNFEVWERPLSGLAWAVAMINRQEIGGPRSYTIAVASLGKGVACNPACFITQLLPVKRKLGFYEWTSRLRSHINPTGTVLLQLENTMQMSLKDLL
# miR-21 FLuc: qHTS Assay for Modulators of miRNAs and/orActivators of miR-21 | HeLa miR-21 FLuc reporter, luciferase, 48 h | Potency, µM (highest dose often 38.3 µM), for inactives: at the highest dose reporter change, positive = more light | 340,000 tested, under 10 active | AID 2288, 2010; active = well fitted rising curve with a large enough effect; inconclusive = small, poorly fitted or top-dose-only effect; inactive = no such curve, though single readings can be large or run the other way;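 also: % of control where 0% means no effect; miR-21 action dims this reporter so a rising signal means less miR-21 action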
#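 Luminescence from a firefly luciferase reporter carrying a miR-21 binding site downstream, stably expressed under a CMV promoter in HeLa cells that make miR-21 endogenously, reports miRNA modulation after 48 h compound exposure up to approximately 40uM final.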
# * hit, by the source's call; ? = inconclusive; . = not tested or not shown; & = joins results of further samples.
# Short keys – A = Rango complex inh; B = Rango dissoc inh; C = GLA inh pH 4.5; D = miR-21 FLuc
COc1cc(NC(=O)CN2CCN(c3ccccc3)CC2)c(C)cc1[N+](=O)[O-]
  A = 2.6%	B = 7%	C = -5	D = -7%

Cc1cc(-c2c(C(=O)N3CCOCC3)c(C)nn2-c2cccc(C(F)(F)F)c2)no1
  A = 4.5%	B = 10%	C = -1	D = 0%

CCC1(C)CC(=O)N(c2ccc(C(=O)O)c(O)c2)C1=O (centres undefined)
  A = -3.1%	B = 7%	C = 0	D = -3%

COc1ccc(/C=N/NC(=O)c2cccc(Br)c2)cc1COc1ccccn1
  A = -0.6%	B = -15%	C = 4	D = 5%

COc1ccc(-n2c(=S)[nH]c3cc(C(=O)Nc4cc(OC)c(OC)c(OC)c4)ccc3c2=O)c(OC)c1
  A = -2.2%	B = 1%	C = -9	D = 22%

COc1ccc(NC(=O)C2CC(=O)N=C(N)S2)cc1 (centres undefined)
  A = 3.1%	B = 0%	C = -11	D = -2%

CCc1ccc(OCC(=O)O/N=C(\N)c2ccncc2)cc1
  A = 1.2%	B = -9%	C = .	D = -27%

CCCCN=C1NN=C(c2ccc3c(c2)OCCO3)CS1
  A = 1.3%	B = -7%	C = 3	D = -2%

COc1ccc(CC(=O)Nc2nnc(SCc3ccccc3)s2)cc1S(=O)(=O)N1CCOCC1
  A = -3.8%	B = -14%	C = -6	D = -10%

COc1ccc(-n2ncc3c(=O)n(CC(=O)OCc4ccccc4)cnc32)cc1
  A = 0.1%	B = -15%	C = -3	D = -2%

Cc1ccc(C(=O)Nc2nc(-c3ccc(F)cc3)cs2)o1
  A = -4.7%	B = -8%	C = .	D = 19%

Cc1cc(C)n2nc(SCC(=O)Nc3c(C)nn(-c4ccccc4)c3C)nc2n1
  A = -1.1%	B = 0%	C = -3	D = 0%

Cc1ccc2nc(NC(=O)C3CCCN(S(=O)(=O)c4cccnc4)C3)sc2c1 (centres undefined)
  A = 1.5%	B = 30%	C = 1	D = -1%

COc1cc([N+](=O)[O-])cc(/C=N/NC(=O)C(C)Nc2cccc3ccccc23)c1O (centres undefined)
  A = -0.5%	B = 2%	C = -16	D = 22%

Cc1cc(C(=O)CSc2nnc(Nc3ccccc3)s2)c(C)n1CC1CCCO1 (centres undefined)
  A = 0.6%	B = 8%	C = 3	D = 1%

COc1ccc(N(C(=O)c2ccccc2)S(=O)(=O)c2cccs2)cc1
  A = 0.9%	B = -21%	C = 0	D = 13%

NC(=NCCc1ccccc1)c1cccc([N+](=O)[O-])c1
  A = 1.5%	B = -8%	C = .	D = -13%

O=C(NCCO)C(=O)NCC1CCCN1S(=O)(=O)c1cccs1 (centres undefined)
  A = -2.7%	B = -7%	C = .	D = .

c1ccc2c(c1)[nH]c1nc3nncn3nc12
  A = 4.7%	B = 6%	C = 1	D = 0%

Cc1cccc(C(=O)Nc2c(C(=O)N3CCN(C)CC3)cnn2-c2ccccc2)c1
  A = 0.7%	B = -13%	C = .	D = .

Cc1ccc(CSCC(=O)N2CCOCC2)cc1
  A = 0.7%	B = 15%	C = 4	D = -25%

CCc1cc(C(=O)N2CCCC(CO)(Cc3ccc(F)cc3)C2)n(C)n1 (centres undefined)
  A = -1.3%	B = -5%	C = .	D = 0%

O=C(NN=Cc1ccc(F)cc1)c1cccc(S(=O)(=O)N2CCCC2)c1
  A = -5.6%	B = -18%	C = .	D = .

COc1cc(OC)c(NC(=O)c2ccccc2F)cc1Cl
  A = -6.5%	B = 6%	C = 0	D = -18%

CC(C)OC(=O)CSc1nc(-c2ccc(F)cc2)cc(C(F)(F)F)n1
  A = 2.3%	B = 3%	C = 2	D = -6%

Cc1cccc(-n2ncc3c(N4CCOCC4)ncnc32)c1
  A = 4.4%	B = -9%	C = 3	D = 20%

CC(C)N(C(=O)[C@H]1C[C@H](CC(=O)NC(C)(C)C)C(=O)N2CCc3c([nH]c4cc(-c5ccco5)ccc34)[C@]12C)C(C)C
  A = ?	B = -13%	C = .	D = .

Oc1ccccc1C1=NCCNC(C(F)(F)F)=C1
  A = 2.7%	B = 3%	C = 6	D = 3%

O=C(NC1CCC(O)CC1)c1ccc(-c2ccc(Cl)cc2)o1 (centres undefined)
  A = 0.1%	B = -7%	C = .	D = .

N#C/C(=C(\O)C(F)(F)F)c1nnc2n1CCCCC2
  A = 5.4%	B = 13%	C = 2	D = 3%

NC(=O)CSc1nnc2sc3ccccc3n12
  A = 3.5%	B = 6%	C = 5	D = -4%

COCCn1c(=S)[nH]c2cc(C(=O)N3CCN(c4ccc(F)cc4)CC3)ccc2c1=O
  A = 0.6%	B = 10%	C = -25	D = 1%

COc1cc(NS(=O)(=O)c2ccc(NC(=O)/C=C/c3cccc([N+](=O)[O-])c3)cc2)ncn1
  A = -0.9%	B = 3%	C = -1	D = 2%

CN(Cc1ccccc1)C(=O)CSc1cc(=O)n(C)c2ccccc12
  A = -3.9%	B = -1%	C = 0	D = -25%

COc1cccc(OCC(=O)Nc2ccc(OC)c(OC)c2)c1
  A = 3.3%	B = -14%	C = -3	D = -1%

C/C(=N\NC(=S)NC(C)C)c1ccc(Cl)s1
  A = -2.2%	B = -11%	C = 22	D = 2%

O=C(/C=C/c1ccccc1)OCCCN=C1NS(=O)(=O)c2ccccc21
  A = 0.1%	B = 1%	C = 6	D = -4%

CC(=O)Nc1c2c(nn1-c1ccccc1C)CS(=O)(=O)C2
  A = -13%	B = -12%	C = .	D = -2%

Cc1ccc(Sc2c(C#N)c(-c3ccccc3)nn2C)cc1
  A = 2.9%	B = -13%	C = 3	D = 7%

Cc1csc(NC(=O)CSc2nnc(-c3cccnc3)o2)n1
  A = -5.4%	B = 24%	C = .	D = -3%

CCC1C(=O)N=C(SCC(=O)Nc2ccc(C(=O)OC)cc2)NC1=O (centres undefined)
  A = 3.5%	B = -19%	C = -18	D = -1%

Cc1ccc(N(O)C(=O)NCCCCNC(=O)N(O)c2ccc(C)cc2)cc1
  A = 11%	B = 8%	C = .	D = -17%

NC(=O)C1CCN(C(=O)c2cc(-c3ccc(Cl)cc3)nc3ccccc23)CC1
  A = -2.8%	B = -8%	C = .	D = .

OCCN(CCCn1c(C(F)(F)F)nc2ccccc21)c1nc(CN2CCCCC2)cs1
  A = ?	B = 1%	C = .	D = 0%

c1ccc(Oc2ccc(-c3ccnc4nc(N5CCOCC5)nn34)cc2)cc1
  A = ?	B = 0%	C = 6	D = -4%

Oc1ccc(Cl)cc1-c1cc(-c2ccccc2Cl)[nH]n1
  A = 1.6%	B = -6%	C = -9	D = -39%

CCOC(=O)c1cn2nc(Oc3ccc(OC)cc3)ccc2n1
  A = 0.7%	B = -2%	C = -5	D = -4%

Cn1ccc(C(=O)OCC(=O)Nc2ccccc2Cl)n1
  A = 0.6%	B = 0%	C = .	D = -1%

CN1C(=O)c2ccc(C(=O)NCc3ccccc3)cc2C1=O
  A = 4.0%	B = -4%	C = -9	D = -8%

COC(=O)c1sc(NC(=O)/C=C/c2ccc(C)o2)nc1C
  A = 0.3%	B = -16%	C = -4	D = -47%

CCOC(=O)CSc1nnc(-c2ccccc2)c(-c2ccccc2)n1
  A = ?	B = 3%	C = .	D = 0%

Cn1cc(C(F)(F)F)nc1-c1ccc(OCC(O)CNCCOc2ccc(O)c(C(N)=O)c2)cc1 (centres undefined)
  A = -2.3%	B = 1%	C = 8&15	D = -1%

Cc1ccc(OCC(O)CN2CCOCC2)cc1C (centres undefined)
  A = 0.3%	B = -6%	C = .	D = -2%

COC(=O)CNC(=O)C(CCSC)NC(C)=O (centres undefined)
  A = -0.4%	B = -9%	C = 6	D = -1%

COc1ccc(-c2nc(NC(=O)c3n[nH]c(=O)c4ccccc34)sc2C)cc1
  A = 1.1%	B = 10%	C = 1	D = 17%

O=C1C2C3C=CC(CC3)C2C(=O)N1/N=C/c1ccc(O)c(O)c1 (centres undefined)
  A = ?	B = -16%	C = -3	D = -52%

Cc1cccc(NC(=O)NC2CCCCCCC2)c1
  A = 2.9%	B = 9%	C = .	D = -52%

CN(C)CCCn1c(SCC(=O)Nc2sc3c(c2C#N)CCCC3)nnc1-c1ccncc1
  A = -0.3%	B = 2%	C = 4	D = -2%

CC(C)c1cc(CNC(=O)C2CCC(=O)N(Cc3ccccc3F)C2)on1 (centres undefined)
  A = -2.5%	B = -9%	C = .	D = 0%

CC1(C)CC(NC(=O)c2cc(S(=O)(=O)N3CCOCC3)ccc2Cl)CC(C)(C)N1
  A = 1.5%	B = -5%	C = .	D = .

# (further entries)
# Short keys – A = Rango complex inh; B = Rango dissoc inh; C = GLA inh pH 4.5; D = miR-21 FLuc
Cc1ccc(NC(=O)N2CCc3ccccc3C2)cc1
  A = -2.7%	B = -5%	C = -5	D = -36%

CCOc1ccc(/C=N/NC(=O)c2cc3c(OC)cccc3[nH]2)cc1
  A = -3.2%	B = -6%	C = .	D = 26%

CC12CC3(C)CC(C)(C1)CC(C(=O)NC(=S)N1CCOCC1)(C2)C3
  A = 4.7%	B = -9%	C = -2	D = -1%

O=C(NNC(=S)NCc1ccccc1)c1ccccc1OC(F)F
  A = -1.4%	B = 2%	C = 1	D = -8%

Cc1ccc2nc(Cc3ccc(N)cc3)[nH]c2c1
  A = 3.2%	B = -1%	C = -8	D = -41%

Cc1cc(-c2ccc(C)c(S(=O)(=O)NCc3cccc(Br)c3)c2)on1
  A = -0.3%	B = 5%	C = .	D = 6%&10%

N#Cc1ccc(OCC(=O)OCCCOC(=O)COc2ccc(C#N)cc2)cc1
  A = 3.8%	B = -9%	C = .	D = 3%

CCCCCOc1ccc(C(=O)Nc2ccc(N3CCOCC3)cc2N2CCOCC2)cc1
  A = 0.5%	B = 4%	C = .	D = .

OCC1(CC2CCCCO2)CCN(Cc2ccccc2-c2ccco2)CC1 (centres undefined)
  A = 1.6%	B = -6%	C = 5	D = 0%

O=C(O)c1ccccc1SC1CC(=O)N(c2ccccc2)C1=O (centres undefined)
  A = 1.5%	B = -16%	C = 5	D = -5%

CC(C)CC(NC(=O)c1cccc(Cl)c1)C(=O)O (centres undefined)
  A = -1.0%	B = 1%	C = -3	D = -1%

CCOc1ccc(/C=C/C(=O)Nc2ccccc2C(F)(F)F)cc1
  A = 0.3%	B = 13%	C = -9	D = -46%

COCC(=O)NCc1nc2ccccc2n1Cc1ccccc1F
  A = -5.5%	B = 2%	C = -4	D = -4%

CC(C)=CCC/C(C)=C/CNC(=O)C[C@H]1C[C@H](C(=O)N2CCOCC2)[C@@]2(C)c3[nH]c4ccc(Cl)cc4c3CCN2C1=O
  A = 2.1%	B = 5%	C = .	D = .

CCn1c(=N)n(CC(O)c2cccs2)c2ccccc21 (centres undefined)
  A = 2.5%	B = 1%	C = 1	D = 0%

CC(OC(=O)c1ccc2c(=O)n3c(nc2c1)CCCCC3)C(N)=O (centres undefined)
  A = 0.6%	B = 1%	C = 8	D = 4%

# Some values from the entries so far.
# miR-21 FLuc, CC(OC(=O)c1ccc2c(=O)n3c(nc2c1)CCCCC3)C(N)=O (centres undefined) : 4%
# Rango dissoc inh, CC(C)CC(NC(=O)c1cccc(Cl)c1)C(=O)O (centres undefined) : 1%
# miR-21 FLuc, Cc1ccc2nc(Cc3ccc(N)cc3)[nH]c2c1 : -41%
# GLA inh pH 4.5, CC12CC3(C)CC(C)(C1)CC(C(=O)NC(=S)N1CCOCC1)(C2)C3 : -2
# GLA inh pH 4.5, OCC1(CC2CCCCO2)CCN(Cc2ccccc2-c2ccco2)CC1 (centres undefined) : 5
# miR-21 FLuc, N#Cc1ccc(OCC(=O)OCCCOC(=O)COc2ccc(C#N)cc2)cc1 : 3%

# Profiles as entered above:
# Entry for Cc1cc(-c2ccc(C)c(S(=O)(=O)NCc3cccc(Br)c3)c2)on1 = Rango complex inh: -0.3%; Rango dissoc inh: 5%; GLA inh pH 4.5: .; miR-21 FLuc: 6%&10%
# Entry for N#Cc1ccc(OCC(=O)OCCCOC(=O)COc2ccc(C#N)cc2)cc1 = Rango complex inh: 3.8%; Rango dissoc inh: -9%; GLA inh pH 4.5: .; miR-21 FLuc: 3%

# The list is partial. The share of hits here may be higher or lower than overall.
